Screening results: PubChem, several laboratories
RecA splice inh – Mtb RecA intein splicing inhibitors, primary screen, biochemical, fluorescence, HTS; Protein RecA (Mycobacterium tuberculosis (strain ATCC 25618 / H37Rv)), P9WHJ3; cell-free RecA intein splicing; inhibition, %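 (about 9 µM by stock and volumes)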; 290,000 tested, 0.75% active; AID 2221, 2009; in the data active means inhibition above about 30%; inconclusive means no clear call, values can overlap the other calls;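 further: 0% = vehicle wells and 100% = reference inhibitor control wells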
Target sequence (P9WHJ3 whole entry, looked up, canonical isoform): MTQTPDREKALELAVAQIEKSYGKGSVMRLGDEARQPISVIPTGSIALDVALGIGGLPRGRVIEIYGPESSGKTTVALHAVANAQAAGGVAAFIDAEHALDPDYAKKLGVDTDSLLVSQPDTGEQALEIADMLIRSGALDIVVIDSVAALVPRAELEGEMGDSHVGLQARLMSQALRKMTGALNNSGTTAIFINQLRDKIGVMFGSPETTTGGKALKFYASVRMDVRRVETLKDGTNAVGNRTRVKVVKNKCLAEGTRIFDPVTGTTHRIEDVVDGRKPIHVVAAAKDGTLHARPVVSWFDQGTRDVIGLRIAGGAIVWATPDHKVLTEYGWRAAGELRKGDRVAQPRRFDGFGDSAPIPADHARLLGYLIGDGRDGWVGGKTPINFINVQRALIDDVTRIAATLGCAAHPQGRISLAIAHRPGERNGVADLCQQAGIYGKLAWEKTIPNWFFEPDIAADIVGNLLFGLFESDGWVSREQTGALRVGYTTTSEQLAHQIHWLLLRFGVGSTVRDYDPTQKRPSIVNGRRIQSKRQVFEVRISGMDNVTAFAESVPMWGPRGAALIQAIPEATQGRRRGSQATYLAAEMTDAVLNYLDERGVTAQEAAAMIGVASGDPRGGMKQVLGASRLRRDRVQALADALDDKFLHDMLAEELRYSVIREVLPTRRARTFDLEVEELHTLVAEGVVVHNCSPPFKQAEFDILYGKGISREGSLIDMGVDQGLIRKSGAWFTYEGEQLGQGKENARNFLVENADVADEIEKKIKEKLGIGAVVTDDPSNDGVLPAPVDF
Mtb bLac sens – beta-lactam sensitization of Mtb H37Rv, H37Rv; 330,000 tested, 0.27% active; M. tuberculosis H37Rv growth with meropenem, percent inhibition; hits of this screen are not shown here; inhibition, % at 25 µM;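 active means about 74% or more and at least 40 points above the plate without the antibiotic, then above 30% in a dose series; inconclusive means first-round hits that could not be retested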;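 further: growth measured after seven days incubation then overnight dye step; 0% = bacteria only wells and 100% = bacteria with antibiotic; twin plates without the antibiotic show which effects depend on it; some results filed as inactive read as strong as hits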
YopH inh – YopH tyrosine phosphatase inhibitors, primary screen, biochemical, fluorescence Ex485/Em525. YopH tyrosine phosphatase [Yersinia enterocolitica]. 140,000 tested, 0.16% active. inhibition, %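 (about 10 µM by stock and volumes)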;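 active means inhibition of 50% or more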;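 further: controls were vehicle for no effect and minimum signal wells for full effect; inactives centre near -20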
Arbovirus inh – antivirals against arbovirus infection, primary screen, cell-based, full library, 10K replicate subset | inhibition, % at 10 µM | AID 1251, 2008 | arbovirus infection cell-based antiviral screen | 200,000 tested, 0.37% active;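 active means inhibition from about 30%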;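 further: bluetongue infection of BSR cells; cell survival read as ATP light after 72 h; 0% = infected wells without compound and 100% = uninfected wells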
Mtb H37Rv – M. tuberculosis H37Rv growth inhibitors, H37Rv strain (AID 1626) | M. tuberculosis H37Rv growth inhibition; higher % means a stronger effect | one-dose inhibition, % at 10 µM; IC50 in µM for titrated hits | 220,000 tested, 0.95% active;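 active means confirmed in a dose series; inconclusive means inhibition above 80% but not taken into the dose series; inactive means below 80% or under 30% at every dose of the series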;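 further: bacteria incubated seven days before Alamar blue readout; 0% = bacteria only wells and 100% = bacteria with antibiotic wells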
Arbovirus inh repeat – second read-out of Arbovirus inh, no call of its own (marks repeat the call); inhibition, %; measured here: 10K subset replicate screen; many hits read low in the repeat;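 first of two repeat runs on a subset; 0% = infected and 100% = uninfected wells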
Numbers without * were called inactive; ? = inconclusive; / = not tested or not shown. Some of the compounds tested; count on the stated rates, not on these rows.

SMILES | RecA splice inh | Mtb bLac sens | YopH inh | Arbovirus inh | Mtb H37Rv | others
CCCC(=O)Nc1ccc(C(=O)n2nnc3ccccc32)cc1 | 3.7 | 5 | 0 | 1 | -7%
O=C(CSc1nnc(NC(=O)c2ccco2)s1)Nc1ccccc1Cl | 5.5 | -4 | / | / | /
CCOc1ccccc1N1C(=O)CC(Sc2nccc(C)n2)C1=O (centres undefined) | 2.6 | -1 | / | / | /
Cn1c(CN2CCN(c3ccccc3NS(C)(=O)=O)CC2)nc2ccccc21 | -0.5 | 3 | / | / | /
Cc1cc(C)c(S(=O)(=O)N2CCc3ccccc32)c(C)c1 | 14 | 1 | / | / | /
Cc1ccccc1NC(=O)c1ccc2snnc2c1 | 1.7 | 0 | / | -1 | 1%
O=C(CN1C(=O)NC2(CCCC2)C1=O)N1CCN(c2cccc(C(F)(F)F)c2)CC1 | 3.1 | -3 | / | / | /
O=S(=O)(c1cccs1)N1CCC(Cc2ccccc2)CC1 | -3.9 | -1 | -32 | -2 | 4%
CCN(Cc1ccccc1)S(=O)(=O)c1cc(C(=O)NCC2CCCCC2)ccc1OC | -0.6 | -7 | -13 | -7 | -5%
CCc1nnc(NC(=O)Cn2nnc(-c3ccccc3F)n2)s1 | -2.8 | 6 | -42 | 9 | -7%
CCOc1ccccc1N1CCN(Cc2ccc(OC)c(OC)c2)CC1 | / | -21 | -17 | 2 | -1%
CCOC(=O)C1=C(O)/C(=C\c2cccs2)N=C1C | -1.3 | ? | -20 | -4 | 4%
CC(C)NS(=O)(=O)c1ccc(CCC(=O)Nc2ccc3c(c2)OCO3)cc1 | -0.6 | -1 | -15 | -3 | 1%
COC(=O)c1ccccc1NC(=O)c1ccc(-c2ccc(Br)cc2)o1 | -0.3 | ? | 0 | -3 | /
Cc1cc(C)n2nc(SCCC(=O)NCc3ccccc3)nc2n1 | -0.9 | -8 | / | 3 | 1%

Part of the list above in order of molecular weight, smallest number first:
SMILES | RecA splice inh | Mtb bLac sens | YopH inh | Arbovirus inh | Mtb H37Rv | others
Cc1cc(C)c(S(=O)(=O)N2CCc3ccccc32)c(C)c1 | 14 | 1 | / | / | /
Cc1cc(C)n2nc(SCCC(=O)NCc3ccccc3)nc2n1 | -0.9 | -8 | / | 3 | 1%
CCN(Cc1ccccc1)S(=O)(=O)c1cc(C(=O)NCC2CCCCC2)ccc1OC | -0.6 | -7 | -13 | -7 | -5%

Further results.
SMILES | RecA splice inh | Mtb bLac sens | YopH inh | Arbovirus inh | Mtb H37Rv | others
O=C(CNC(=O)OCc1ccccc1)Oc1ccc2ccc(=O)oc2c1 | -60 | 5 | / | / | /
CC(=O)Nc1ccc2oc(-c3cc(F)c(F)cc3Cl)nc2c1 | 3.6 | -1 | -15 | -6 | -2%
Cc1cc(C)n(CCOC(=O)c2sc3ccccc3c2Cl)n1 | 0.4 | 98 | 7 | 1 | 48%
CCCCCn1c(=O)c(C(=O)Nc2ccccc2N)c(O)c2ccccc21 | -4.3 | 3 | / | / | /
CC(C)CN(C(=O)COC(=O)c1ccc2c(c1)NC(=O)CS2)C1CCS(=O)(=O)C1 (centres undefined) | -0.6 | -10 | -46 | -6 | -3%
Cc1cccc(Nc2nc(N)c([N+](=O)[O-])c(N3CC(C)CC(C)C3)n2)c1 (centres undefined) | 7.2 | 14 | -1 | -39 | 14%
O=C(N/N=C/c1ccccc1[N+](=O)[O-])c1cnccn1 | 3.9 | -8 | / | / | 1%
Cc1cc(=O)[nH]c(Nc2cccc(F)c2)n1 | -2.4 | 0 | / | / | /
COc1ccc(-c2nc3scc(-c4ccc(OC)c(OC)c4)c3c(=O)o2)cc1 | -10 | 19 | -34 | -10 | 3%
O=C(NCc1ccc(Cl)cc1)C(=O)NCC1OCCN1C(=O)c1cccs1 (centres undefined) | -0.7 | 11 | -18 | -3 | 22%
Cc1ccc(OCCCCN2CCC(C)CC2)cc1 | 2.5 | 1 | / | / | /
O=C1c2ccccc2C(=O)N1CC(=O)N1c2ccccc2CCc2ccccc21 | -1.8 | -2 | -24 | 1 | -1%
O=S(Cc1ccc(Br)cc1)Cc1nnc(SCc2c(F)cccc2Cl)n1-c1ccccc1 (centres undefined) | 17 | 3 | -5 | -25 | 16%
Cc1cc(SCC(=O)c2ccc(O)c(O)c2)n2nc(C)c(-c3ccccc3)c2n1 | 25 | 62 | / | / | 1%
c1ccc2nc3c(nc2c1)CCCC3 | -0.7 | 1 | / | / | /
CCOC(=O)C1CCN(C(=O)COc2ccc(S(=O)(=O)N3CCCC3)cc2C)CC1 | 9.3 | -8 | / | 6 | 9%
COc1ccccc1N1CCN(C(=O)CN2C(=O)C3CCCCC3C2=O)CC1 (centres undefined) | 4.9 | 0 | / | -4 | -1%
Cc1ccc(C(=O)N2CCCC(C(F)(F)F)C2)cc1S(=O)(=O)N1CCCCC1 (centres undefined) | -2.4 | -17 | / | / | /
CC(=O)c1c(C)[nH]c(C(=O)Nc2ccc(F)c(F)c2F)c1C | -0.2 | 8 | / | / | /
COc1ccc([C@@H]2[C@@H]3C(=O)N(C(C)(C)C)C(=O)[C@@H]3[C@]3(Cc4ccc(Cl)cc4)C(=O)N(c4ccc(Br)cc4)C(=O)N23)cc1 | 6.3 | 62 | / | / | /
Cc1csc(CNC(=O)c2cc(COc3c(C)cccc3C)on2)n1 | 1.9 | -4 | / | / | /
Cc1nc(-c2ccc(Cl)cc2)sc1C1(C)CC(c2ccc(Cl)cc2)=NO1 (centres undefined) | 2.2 | -9 | / | / | -4%
Cc1ccc(/C=C/c2nnc(-c3ccccc3)o2)cc1 | 0.5 | 3 | -42 | 9 | 4%
Cc1cccc(-n2c(-c3ccco3)nc3ccccc3c2=O)n1 | 0.4 | -8 | 8 | 2 | 7% | Arbovirus inh repeat=-3
Nc1nnn(CC(=O)N/N=C/c2ccccc2)n1 | 0.9 | -2 | / | / | -10%
CCCNc1nc(-c2cc(C(=O)Nc3ccccc3)on2)cc(C(C)C)n1 | 3.3 | 96 | / | / | 1%
CC(C)N1CCN(Cc2ccc3c(c2)OCCO3)CC1CCO (centres undefined) | 0.7 | 0 | / | 5 | -2%
O=C1COc2ccc(S(=O)(=O)CCC(=O)N3CCN(c4ccccc4)CC3)cc2N1 | 0.0 | -3 | / | / | /
O=C(Nc1ccc(Oc2ncnc3cc(Cl)ccc23)nc1)c1cccs1 | -2.2 | -3 | / | / | -6%
CC(C)(C)C(=O)Cn1ncc(Br)c(Br)c1=O | 20 | / | / | -27 | 24%
O=C(CSc1nnnn1-c1ccccc1F)NNC(=O)c1ccco1 | -1.1 | -7 | / | 1 | -1%
CC(C)=CCN1CCN(Cc2ccc(C#CC(C)(C)O)cc2)CC1CCO (centres undefined) | 0.8 | 0 | / | -8 | 0%
CCC(C)N1CCN(C(=O)c2cc(OC)cc(OC)c2)CC1 (centres undefined) | 5.0 | -4 | / | / | /
Cc1cccc(Nc2nnc(SCC3CCCCO3)s2)c1 (centres undefined) | 4.3 | 2 | -37 | -25 | -6%
C=CCc1ccccc1OCC(O)CN1CCN(C(=O)OCC)CC1 (centres undefined) | 0.7 | -3 | -23 | 3 | 2%
Cc1ccc(C)c(N2CCN(C(=O)CCc3nc4ccccc4[nH]3)CC2)c1 | 2.4 | 1 | -17 | 8 | 9% | Arbovirus inh repeat=3
CC(=O)N1c2ccc(S(=O)(=O)N3CCCCC3)cc2CC1C(=O)Nc1cccc(C)c1 (centres undefined) | 5.0 | -7 | / | / | /
CCOCC(=O)Nc1nnc(COCC)s1 | 0.9 | -4 | -21 | 0 | /
CSc1nnc2c(n1)OC1(Nc3ccccc3-2)C(=O)Nc2ccccc21 (centres undefined) | -1.9 | -2 | / | 0 | 3%
CCOc1ccc(C2C([N+](=O)[O-])=C(C)N(C)C(=O)N2C)cc1OC (centres undefined) | 7.2 | 18 | / | -1 | -4%
CC(C)OC(=O)CSc1nnc(CNc2cccc(Cl)c2)n1C | 0.9 | 95 | 3 | -6 | 10%
COc1ccc(NS(=O)(=O)c2ccc(O)c(C(=O)OCC(=O)Nc3ccc4c(c3)OCCO4)c2)cc1 | -9.0 | -5 | -27 | 8 | -5%
N/C(=N\OC(=O)c1ccc(Cl)c([N+](=O)[O-])c1)c1ccccn1 | 0.5 | 3 | / | 12 | 9%
COc1cc(S(=O)(=O)N2CCC(N3CCCCC3)CC2)ccc1-n1cnnn1 | -1.6 | / | -12 | 10 | -2%
O=C(CCCNS(=O)(=O)c1ccc(Cl)c(Cl)c1)NCCc1ccccn1 | -0.1 | -12 | / | 12 | -8%

In the list so far, two contain a CF3 group.
SMILES | RecA splice inh | Mtb bLac sens | YopH inh | Arbovirus inh | Mtb H37Rv | others
O=C(CN1C(=O)NC2(CCCC2)C1=O)N1CCN(c2cccc(C(F)(F)F)c2)CC1 | 3.1 | -3 | / | / | /
Cc1ccc(C(=O)N2CCCC(C(F)(F)F)C2)cc1S(=O)(=O)N1CCCCC1 (centres undefined) | -2.4 | -17 | / | / | /

Additional entries
SMILES | RecA splice inh | Mtb bLac sens | YopH inh | Arbovirus inh | Mtb H37Rv | others
COc1cc(C(=O)Nc2c(C)cc(C)cc2C)c(-n2cnnn2)cc1OC | -1.8 | 0 | -27 | 1 | -10%
CCN=C1SC(C(=O)Nc2cccc(OCC)c2)CC(=O)N1CC (centres undefined) | -2.7 | 4 | -21 | -1 | -3%
Cc1cc(=O)[nH]c2n[nH]c(-c3ccccc3)c12 | -7.1 | -13 | -28 | -2 | -1%
Cc1cc(OCC(=O)O)c2ccccc2n1 | -1.7 | ? | -47 | -2 | -7%
CN1CCN(CCCNC(=O)c2ccc(/C=C3/Sc4ccccc4N(Cc4cccc(Cl)c4)C3=O)cc2)CC1 | 19 | / | / | -30 | ?
CC(NC(=O)c1ccc(Br)s1)C1CCCO1 (centres undefined) | -1.9 | -4 | -28 | 3 | 2%
O=C1OCCC1Sc1nnc(-c2ccc3c(c2)OCO3)o1 (centres undefined) | 0.1 | -3 | / | 12 | -10%
C=CCn1c(COc2ccccc2)nnc1SCC(=O)N/N=C/c1cc(Cl)ccc1O | 5.7 | -1 | 0 | -10 | -2%
CCOc1ccc(-c2nnn(CC(=O)N3CCN(c4ccc(F)cc4)CC3)n2)cc1OCC | -1.9 | 9 | -18 | -4 | -12%
COc1ccc(C(CC(=O)O)NC(=O)c2ccccc2[N+](=O)[O-])cc1 (centres undefined) | 1.6 | -5 | / | 6 | -8%
CCN1CCN(c2cc(C(C)C)nc3c(-c4ccccc4)c(C)nn23)CC1 | 6.0 | -3 | / | / | 11%
Oc1ccc(Cl)cc1-c1cc(-c2ccco2)[nH]n1 | 19 | 47 | -31 | -30 | -4%
Cc1ccc(C2=NS(=O)(=O)N(C)C(C(=O)NCc3ccc4c(c3)OCO4)=C2)cc1 | 0.8 | 4 | / | / | /
Cc1ccc(-n2c(N)c(C(=O)Nc3ccccc3F)sc2=S)cc1C | -0.3 | -6 | / | -6 | 4%
CCC(=O)NC(=S)Nc1cccc(NC(=O)c2ccccc2Cl)c1 | 0.1 | 3 | -36 | -12 | 9%
O=C(NC(=S)NCc1cccnc1)c1cc(Br)ccc1Cl | 0.8 | 6 | / | / | /
Cc1ccc(C(=O)COC(=O)CNC(=O)CNC(=O)c2ccc(C)cc2)cc1 | -5.7 | 6 | -27 | 3 | -4%
CN(C)S(=O)(=O)N1CCC(Oc2cccc(C(=O)NC3CCCCC3)c2)CC1 | 1.1 | -9 | / | / | /
COC(=O)C1=C2SC(C)C(=O)N2C(N)=C(C#N)C1c1ccc(OC)c(OC)c1 (centres undefined) | -2.0 | -1 | -20 | 2 | -10%
CC(C)(C)N(Cc1cc2ccccc2[nH]c1=O)C(=O)c1ccco1 | 2.6 | -1 | / | 4 | -6%
Fc1ccc(C2=NOC(c3nnc(-c4ccccc4)o3)C2)cc1 (centres undefined) | -4.2 | -4 | / | / | -2%
CNC(=S)N/N=C/c1c(Cl)cccc1Cl | 0.9 | 52 | -14 | 9 | 8%
CC(C)=CCc1cc(-c2oc3cc(O)cc(O)c3c(=O)c2O)ccc1O | 12 | 3 | / | / | -2%
CC1(C)C(=O)Nc2ccccc2N1C(=O)COC(=O)C1CCCCC1 | 2.0 | 8 | -7 | 9 | -3%
COc1ccc(-c2ccnc(SCC(=O)Nc3ccccn3)n2)cc1 | 0.6 | 17 | -27 | -14 | 12%
Cc1ccc2nc(NNC(=O)c3ccc4c(c3)OCCO4)sc2c1 | -3.3 | 67 | -17 | -15 | /
COC(=O)N/N=C/c1cc(N=Nc2ccccc2)ccc1O | 3.1 | 86 | / | / | 70%
